Compound activity as filed in PubChem BioAssay.
Env fusion inh: inhibitors of HIV-1 Env-driven cell-cell fusion, primary screen, HeLa-JRFL effector, CEM21 target cells, luciferase. inhibition, % at 12.3 µM. 360,000 compounds, 1.1% hits;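 active = mean replicate inhibition score of at least 50 and every replicate individually at or above 50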;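 also: 0% = plate neutral controls and 100% = maraviroc near 300 nM; one replicate is shown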
Yeast UUG start: modulators of yeast start codon fidelity, primary screen, whole organism, S. cerevisiae, single point, plate reader; activity score, % at 18.7 µM; 350,000 compounds, 0.13% hits; S. cerevisiae UUG-firefly luciferase reporter, luminescence/redox ratio;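 active = replicate mean at a twofold rise or more, about +100% in these data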;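 also: firefly luciferase made from a UUG start codon reports start codon fidelity; reporter light over untreated wells divided by growth signal over untreated wells; some hits fall short of that in this replicate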
* marks the source's active call; other numbers are inactive results; [ ] = another dose, or the depositor's remark.

Under each structure – Env fusion inh	Yeast UUG start
COc1ccc(NC(=O)Nc2ccc3c(c2)C(=O)N([C@H](C)CO)C[C@H](C)[C@@H](CN(C)C(=O)CCC(F)(F)F)OCCCC[C@@H](C)O3)cc1
    4[16.7 µM]	-8
C[C@H](CO)N1C[C@H](C)[C@@H](CN(C)C(=O)c2ccccc2)Oc2cc(C3=CCCCC3)ccc2S1(=O)=O
    -6[16.7 µM]	21
O=C(Nc1ccc(Cl)cc1)N[C@@H]1CC[C@@H](CCNS(=O)(=O)c2ccccc2F)O[C@@H]1CO
    10[16.7 µM]	8
C[C@@H]1CCCCO[C@@H](CN(C)Cc2ccc(C(F)(F)F)cc2)[C@H](C)CN([C@@H](C)CO)C(=O)c2cc(NC(=O)Nc3cccc4ccccc34)ccc2O1
    15[16.7 µM]	4
C[C@@H]1CN([C@H](C)CO)C(=O)c2cc(C#CCN(C)C)cnc2O[C@@H]1CN(C)C(=O)NC1CCCC1
    -12[16.7 µM]	1
C[C@@H]1CN([C@H](C)CO)S(=O)(=O)c2ccc(-c3cccnc3)cc2O[C@H]1CN(C)C(=O)NC1CCCC1
    1[16.7 µM]	-6
C[C@@H]1CN([C@@H](C)CO)C(=O)Cc2cc(NC(=O)Nc3ccc(C(F)(F)F)cc3)ccc2O[C@H]1CN(C)Cc1ccccc1
    24[16.7 µM]	12
C[C@@H]1CCCCO[C@@H](CN(C)C(=O)C2CCCCC2)[C@H](C)CN([C@H](C)CO)C(=O)c2cc(NS(=O)(=O)c3cccs3)ccc2O1
    -17[16.7 µM]	11
Cc1noc(C)c1NC(=O)NCC[C@@H]1CC[C@@H](NC(=O)Cc2cccnc2)[C@@H](CO)O1
    -1[16.7 µM]	3
COCC(=O)N[C@@H]1C=C[C@H](CC(=O)NCc2ccccc2OC)O[C@H]1CO
    8[16.7 µM]	-3

Arranged by formula weight (descending): 3 of the compounds above
Under each structure – Env fusion inh	Yeast UUG start
COc1ccc(NC(=O)Nc2ccc3c(c2)C(=O)N([C@H](C)CO)C[C@H](C)[C@@H](CN(C)C(=O)CCC(F)(F)F)OCCCC[C@@H](C)O3)cc1
    4[16.7 µM]	-8
C[C@@H]1CN([C@@H](C)CO)C(=O)Cc2cc(NC(=O)Nc3ccc(C(F)(F)F)cc3)ccc2O[C@H]1CN(C)Cc1ccccc1
    24[16.7 µM]	12
C[C@@H]1CN([C@H](C)CO)C(=O)c2cc(C#CCN(C)C)cnc2O[C@@H]1CN(C)C(=O)NC1CCCC1
    -12[16.7 µM]	1

(continued)
Under each structure – Env fusion inh	Yeast UUG start
O=C(NCC[C@H]1CC[C@H](NS(=O)(=O)c2ccccc2F)[C@H](CO)O1)c1ccc(F)cc1
    5[16.7 µM]	14
CCNC(=O)C[C@@H]1CC[C@H]2[C@H](COc3ccc(NC(=O)C4CCCCC4)cc3C(=O)N2C)O1
    -1[16.7 µM]	40
CNC(=O)C[C@@H]1CC[C@@H]2[C@@H](COc3ccc(NC(=O)c4cccc(OC)c4)cc3C(=O)N2C)O1
    -17[16.7 µM]	-9
O=C(NCC[C@@H]1CC[C@@H](NC(=O)C2CCOCC2)[C@H](CO)O1)Nc1ccc(Cl)cc1
    -1[16.7 µM]	-15
COc1ccc(NC(=O)Nc2ccc3c(c2)C(=O)N([C@H](C)CO)C[C@@H](C)[C@H](CN(C)C(=O)Cc2ccccc2)OCCCC[C@@H](C)O3)cc1
    1[16.7 µM]	12
C[C@@H]1CCCCO[C@@H](CN(C)C(=O)CCCN(C)C)[C@@H](C)CN([C@H](C)CO)C(=O)c2cc(NC(=O)c3ccncc3)ccc2O1
    19[16.7 µM]	-11
C[C@H](CO)N1C[C@H](C)[C@@H](CN(C)C(=O)CCCN(C)C)OCCCC[C@H](C)Oc2ccc(NC(=O)Nc3ccccc3)cc2C1=O
    -28[16.7 µM]	5
C[C@@H]1CN([C@@H](C)CO)S(=O)(=O)c2ccc(C#CC3CCCC3)cc2O[C@H]1CN(C)C
    9[16.7 µM]	55
COc1ccc(S(=O)(=O)N(C)C[C@@H]2OCCCC[C@@H](C)Oc3ccc(NS(=O)(=O)c4ccccc4)cc3C(=O)N([C@H](C)CO)C[C@@H]2C)cc1
    9[16.7 µM]	5
C[C@H]1CN([C@@H](C)CO)C(=O)Cc2cc(N(C)C)ccc2O[C@H]1CN(C)C(=O)Nc1cccc2ccccc12
    15[16.7 µM]	4

Full records, quoted from the list:
C[C@@H]1CCCCO[C@@H](CN(C)C(=O)CCCN(C)C)[C@@H](C)CN([C@H](C)CO)C(=O)c2cc(NC(=O)c3ccncc3)ccc2O1 is listed as Env fusion inh = 19[16.7 µM]; Yeast UUG start = -11
C[C@H]1CN([C@@H](C)CO)C(=O)Cc2cc(N(C)C)ccc2O[C@H]1CN(C)C(=O)Nc1cccc2ccccc12 is listed as Env fusion inh = 15[16.7 µM]; Yeast UUG start = 4
O=C(NCC[C@@H]1CC[C@@H](NC(=O)C2CCOCC2)[C@H](CO)O1)Nc1ccc(Cl)cc1 is listed as Env fusion inh = -1[16.7 µM]; Yeast UUG start = -15

The list goes on.
Under each structure – Env fusion inh	Yeast UUG start
CC(=O)N(C)C[C@H]1Oc2ncc(C#C[C@H](C)O)cc2C(=O)N([C@@H](C)CO)C[C@@H]1C
    3[16.7 µM]	-7
CCCNC(=O)N(C)C[C@@H]1Oc2ncc(C#C[C@@H](C)O)cc2C(=O)N([C@@H](C)CO)C[C@@H]1C
    5[16.7 µM]	5
C[C@@H]1CN([C@@H](C)CO)C(=O)c2cccc(NC(=O)Nc3cccc4ccccc34)c2O[C@H]1CN(C)S(=O)(=O)c1ccccc1
    -2[16.7 µM]	-1
CC(=O)N[C@H]1CC[C@H](CCNC(=O)C2CC2)O[C@H]1CO
    -15[16.7 µM]	-8
CC(C)NC(=O)N(C)C[C@@H]1Oc2ccc(NC(=O)Nc3ccc4c(c3)OCO4)cc2CC(=O)N([C@@H](C)CO)C[C@@H]1C
    -19[16.7 µM]	10
CO[C@H]1CN(C)C(=O)c2ccc(NC(=O)Nc3ccc(Cl)c(Cl)c3)cc2OC[C@H](C)NC[C@@H]1C
    5[16.7 µM]	13
C[C@H]1CN([C@@H](C)CO)C(=O)c2cccc(NC(=O)C3CC3)c2O[C@H]1CN(C)Cc1ccc(Cl)c(Cl)c1
    4[16.7 µM]	13
O=C(C[C@@H]1C=C[C@H](NC(=O)C2CCOCC2)[C@@H](CO)O1)NCC1CC1
    -2[16.7 µM]	-12
O=C(C[C@H]1C[C@@H]2c3cc(NC(=O)C4CCC4)ccc3O[C@@H]2[C@@H](CO)O1)NCc1ccccc1
    -18[16.7 µM]	-6
CCS(=O)(=O)Nc1ccc2c(c1)C(=O)N(C)[C@@H]1CC[C@H](CC(=O)NC3CCCCC3)O[C@H]1CO2
    -1[16.7 µM]	21
COc1ccc(NC(=O)Nc2ccc3c(c2)C(=O)N([C@H](C)CO)C[C@@H](C)[C@@H](CN(C)S(=O)(=O)c2ccc(F)cc2)O3)cc1
    28[16.7 µM]	4
CCCNC(=O)N(C)C[C@@H]1Oc2cc(-c3ccccc3F)ccc2S(=O)(=O)N([C@H](C)CO)C[C@H]1C
    0[16.7 µM]	19
O=C(CC1CC1)Nc1ccc2c(c1)[C@H]1C[C@@H](CC(=O)NC3CCCCC3)O[C@@H](CO)[C@H]1O2
    -19[16.7 µM]	-11
Cc1noc(C)c1S(=O)(=O)Nc1ccc2c(c1)CC(=O)N([C@H](C)CO)C[C@H](C)[C@@H](CN(C)C(=O)NC1CCCCC1)O2
    5[16.7 µM]	-1
C[C@H](CO)N1C[C@H](C)[C@@H](CN(C)C(=O)Nc2ccccc2)Oc2ccc(NS(=O)(=O)c3ccc(F)cc3)cc2CC1=O
    2[16.7 µM]	6
CCc1nc2c(OCc3ccc(C#N)cc3)cccn2c1N(C)C(=O)c1ccco1
    16	-14
C[C@@H]1CN([C@@H](C)CO)S(=O)(=O)c2ccc(C3=CCCCC3)cc2O[C@H]1CN(C)Cc1cncnc1
    19[16.7 µM]	-2
CCCc1cn(CC[C@@H]2CC[C@H](NC(=O)CCN3CCCCC3)[C@H](CO)O2)nn1
    -8[16.7 µM]	-13
C[C@@H]1CN([C@H](C)CO)C(=O)Cc2cc(NC(=O)Nc3cccc4ccccc34)ccc2O[C@H]1CN(C)CC1CC1
    -21[16.7 µM]	-2
COc1ccc(S(=O)(=O)Nc2ccc3c(c2)C(=O)N([C@@H](C)CO)C[C@@H](C)[C@H](CN(C)S(=O)(=O)c2ccc(Cl)cc2)OCCCC[C@@H](C)O3)cc1
    3[16.7 µM]	-3
C[C@@H]1CN([C@@H](C)CO)C(=O)c2cc(-c3cccc(C#N)c3)cnc2O[C@@H]1CN(C)Cc1ccncc1
    -6[16.7 µM]	-10
Cc1ccc(S(=O)(=O)N(C)C[C@@H]2Oc3ncc(-c4ccccc4)cc3C(=O)N([C@H](C)CO)C[C@H]2C)cc1
    -43[16.7 µM]	0
Cc1ccc(S(=O)(=O)N[C@H]2CC[C@@H](CC(=O)NCc3ccc(Cl)c(Cl)c3)O[C@@H]2CO)cc1
    23[16.7 µM]	-13
CC(=O)N(C)C[C@H]1Oc2ncc(-c3ccc(C#N)cc3)cc2C(=O)N([C@H](C)CO)C[C@@H]1C
    14[16.7 µM]	92
Cc1noc(C)c1NC(=O)N(C)C[C@@H]1Oc2ccc(N(C)C)cc2CC(=O)N([C@@H](C)CO)C[C@@H]1C
    -1[16.7 µM]	-7
COc1ccc(NC(=O)N(C)C[C@H]2Oc3ccc(NC(=O)Nc4c(C)noc4C)cc3C(=O)N([C@@H](C)CO)C[C@@H]2C)cc1
    -82[16.7 µM]	-7
Cc1noc(C)c1NC(=O)Nc1ccc2c(c1)C(=O)N([C@H](C)CO)C[C@H](C)[C@@H](CN(C)Cc1ccc(C(=O)O)cc1)OCCCC[C@@H](C)O2
    -11[16.7 µM]	-6
COc1ccc(NC(=O)Nc2ccc3c(c2)C(=O)N([C@@H](C)CO)C[C@H](C)[C@@H](CN(C)Cc2ccc4c(c2)OCO4)O3)cc1
    -12[16.7 µM]	19
Cc1ccc(S(=O)(=O)N[C@H]2CC[C@@H](CC(=O)NCc3ccccc3F)O[C@H]2CO)cc1
    16[16.7 µM]	-1
Cc1ccccc1-c1cnc2c(c1)C(=O)N([C@@H](C)CO)C[C@H](C)[C@H](CN(C)C(=O)c1ccc(F)cc1)O2
    -3[16.7 µM]	6
C#CCNC(=O)C1=C[C@@H](c2cn(C(C)=O)c3ccccc23)[C@H](CCCO)[C@@H](OCC)O1
    -3[16.7 µM]	8
COc1ccc(NC(=O)N(C)C[C@@H]2OCCCC[C@@H](C)Oc3ccc(NS(C)(=O)=O)cc3C(=O)N([C@H](C)CO)C[C@@H]2C)cc1
    23[16.7 µM]	0
C[C@@H]1CN([C@H](C)CO)C(=O)c2cc(NC(=O)CCC(F)(F)F)ccc2O[C@H]1CN(C)C(=O)Nc1ccc2c(c1)OCO2
    -4[16.7 µM]	-4
C[C@@H]1CN([C@@H](C)CO)C(=O)CCCn2cc(nn2)CO[C@H]1CN(C)C(=O)Nc1ccc(N2CCN(C)CC2)cc1
    6	-3
COCC(=O)N(C)C[C@@H]1Oc2ncc(C#Cc3ccc(F)cc3)cc2C(=O)N([C@@H](C)CO)C[C@@H]1C
    7[16.7 µM]	28
C[C@H](CO)N1C[C@H](C)[C@@H](CN(C)C(=O)CCC(F)(F)F)OCCCC[C@H](C)Oc2ccc(NC(=O)NC3CCCCC3)cc2C1=O
    -7[16.7 µM]	27
C#CCN1C(Cc2ccccc2)C(=O)O[C@H](C2CCCCC2)[C@@H]1/C=C/C1CC1 (stereo not given in full)
    -17[16.7 µM]	-1
C[C@H](CO)N1C[C@H](C)[C@H](CN(C)C(=O)NC2CCCCC2)Oc2ccc(NC(=O)Cc3ccccc3)cc2C1=O
    6[16.7 µM]	27
CNC(=O)C[C@H]1CC[C@H]2[C@@H](COc3ccc(NC(=O)Cc4cccs4)cc3C(=O)N2C)O1
    -13[16.7 µM]	-2
C[C@@H]1CN([C@@H](C)CO)C(=O)c2cc(C#CCN(C)C)cnc2O[C@@H]1CN(C)C(=O)Cc1ccccc1
    -9[16.7 µM]	176*
CCCC(=O)Nc1ccc2c(c1)C(=O)N(C)[C@H]1CC[C@@H](CC(=O)NC3CCCC3)O[C@H]1CO2
    -12[16.7 µM]	4
C[C@H](CO)N1C[C@H](C)[C@@H](CN(C)Cc2cccnc2)Oc2cc(C#CC3CCCCC3)ccc2S1(=O)=O
    21[16.7 µM]	-5
C[C@@H]1CN([C@@H](C)CO)C(=O)Cc2cc(NC(=O)Nc3cccc4ccccc34)ccc2O[C@@H]1CN(C)S(=O)(=O)c1cn(C)cn1
    12[16.7 µM]	-5
CCS(=O)(=O)Nc1ccc2c(c1)C(=O)N(C)C[C@H](OC)[C@H](C)CN(C(=O)C1CCC1)[C@H](C)CO2
    -8[16.7 µM]	2
COc1cccc(S(=O)(=O)N[C@@H]2CC[C@@H](CCn3cc(-c4ccccc4OC)nn3)O[C@H]2CO)c1
    21[16.7 µM]	7
CC(C)NC(=O)N(C)C[C@H]1Oc2ncc(C#CC3(O)CCCC3)cc2C(=O)N([C@@H](C)CO)C[C@@H]1C
    -7[16.7 µM]	8
Cc1noc(C)c1S(=O)(=O)N(C)C[C@@H]1Oc2ccc(NC(=O)C3CC3)cc2CC(=O)N([C@@H](C)CO)C[C@@H]1C
    -24[16.7 µM]	0
Cc1ccc(S(=O)(=O)Nc2ccc3c(c2)CC(=O)N([C@H](C)CO)C[C@H](C)[C@H](CN(C)Cc2ccc(-c4ccccc4)cc2)O3)cc1
    0[16.7 µM]	14
COCC#Cc1cnc2c(c1)C(=O)N([C@H](C)CO)C[C@H](C)[C@@H](CN(C)C(=O)c1cccnc1)O2
    -9[16.7 µM]	-7
CCS(=O)(=O)NCC[C@@H]1CC[C@@H](NC(=O)C2CCC2)[C@@H](CO)O1
    -5[16.7 µM]	-10

Only part of the results is shown; count on the stated rates, not on these rows.
